# Source: PubChem
# Ba CapD inh – inhibitors of Bacillus anthracis CapD enzyme; purified CapD enzyme, fluorescence intensity read-out; stronger effect = lower value; some hits fall short of the stated cut; 0.23% of 140,000 active; z-score (test concentration not listed); AID 492967;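 active means z-score under -4 in either of two replicates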;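 further: stock transfer was 100 nL into about 40 µL; score is relative to mean and spread of the plate; one replicate is shown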
# AID504770 – growth inhibitors of E. coli YBA685 in a screen for V. cholerae RctB (chromosome II replication) inhibitors; 0.27% of 130,000 active; AID 504770; z-score (test concentration not listed); E. coli YBA685 rctB-dependent plasmid, OD600 growth, 3 h; stronger effect = lower value;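 active means z-score under -2 on both plates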;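 further: wells of about 30 µL received 100 nL stock; score is relative to mean and SD of the test wells; the first replicate is given; strong numbers were not always called active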
# The depositor's hits bear a star; i = inactive; / = no result given.
structure,Ba CapD inh,AID504770
Cc1cc(C)c(C(=O)CSC2=NC(N)=C(C#N)C3(CCCCC3)C2C(N)=O)cc1C (configuration not stated),-0.54,-0.7
O=C(/C=C/C=C/c1ccccc1)c1ccncc1,-1.4,-0.05
COc1cccc(C2CC(=O)NC(SCC(=O)Nc3ccc(Br)cc3)=C2C#N)c1 (configuration not stated),-1.1,/
Cc1nn(S(=O)(=O)c2ccc(Cl)cc2)cc1-c1nsc(Nc2ccccc2)n1,0.09,-0.25
CCCCCCc1ccc(C(=O)N2CCN(c3ccc(OC)cc3OC)CC2)cc1,-0.59,/
CN(CC(=O)N1CCC(C(N)=O)CC1)S(=O)(=O)c1ccc(Br)cc1,-0.43,1.7
CC1CCCCC1N(C)C1CCN(CCCNC(=O)/C=C/c2cccc(C(F)(F)F)c2)CC1 (configuration not stated),0.28,-0.55
O=C(O)CCC(=O)Nc1cc(C(F)(F)F)cc(C(F)(F)F)c1,0.75,-0.65
COc1ccc(C=NNC(=O)Cn2cnc3c(=O)n(C)c(=O)n(C)c32)cc1,0.14,-0.65
COc1ccc(CC(=O)n2nc(-c3ccc(F)cc3)cc2SC)cc1OC,0.35,-0.35
CN(Cc1ccccc1)C(=O)CSc1nc(NCc2ccccc2)c2ccccc2n1,0.44,/
CCOC(=O)c1ccc(NC(=O)CSc2nc3cc(C(=O)OC)ccc3c(=O)n2Cc2ccc3c(c2)OCO3)cc1,-0.52,/
COC(=O)c1ccc(-c2cnco2)cc1,0.44,-0.95
Cc1ccc(Cn2c(=O)c3ccccc3n3c(SCC(N)=O)nnc23)cc1,/,2.7
CCn1cc2c(n1)-c1c(oc(C(=O)N3CCc4ccccc4C3)c1C)CC2,0.63,-0.15
COc1cc(C(=O)Oc2ccc(C#N)cc2)cc(OC)c1OC,0.18,1.4
CN(C)c1nc(-c2cn(CCC#N)c3ccccc23)cs1,/,-0.15
O=S(=O)(Nc1ccccn1)c1ccccc1,33,1.9
N#C/C(=C\C1CC=CCC1)c1nc2ccccc2c(=O)[nH]1 (configuration not stated),/,0.8
CC(C)CC(=O)Nc1nc(-c2ccc(F)cc2)cs1,0.02,-2
CN(C)C(=O)/C=C\c1cn(-c2ccccc2)nc1-c1ccc2c(c1)OCCO2,20,0
c1ccc2c(c1)nnn2C12CC3CC(CC(C3)C1)C2,-0.035,1.6
CCC(=O)N1CCc2cc(S(=O)(=O)CCC(=O)N3CC(=O)N(CCc4ccccc4)C(=O)C3)ccc21,-0.23,-0.95
Oc1oc(-c2ccc(Br)cc2)nc1C=Nc1ccccc1I,-0.62,/
CNC(=S)N(Cc1cccnc1)Cc1cc2cc(OC)ccc2[nH]c1=O,/,-2.2
COc1ccc(-c2noc(CN3C(=O)c4ccccc4C3=O)n2)cc1,0.71,-0.35
NC(N)=Nc1nc2ccccc2s1,0.48,0.35
Cc1noc2ncnc(SCc3ccc(C(F)(F)F)cc3)c12,9.4,-0.55
O=C(NC1CSCC1O)c1ccccc1 (configuration not stated),0.065,/
COc1ccc(-c2csc(/C(C#N)=C(\O)CSc3nnc(-c4ccccc4F)n3C3CC3)n2)cc1OC,/,0.55

# Random excerpt: 2 compounds from above
structure,Ba CapD inh,AID504770
CN(C)C(=O)/C=C\c1cn(-c2ccccc2)nc1-c1ccc2c(c1)OCCO2,20,0
COc1ccc(C=NNC(=O)Cn2cnc3c(=O)n(C)c(=O)n(C)c32)cc1,0.14,-0.65

# Next section:
structure,Ba CapD inh,AID504770
CC(C)CC(=O)Nc1cc(Cl)ccc1Cl,0.23,0.65
CC12CCC3C(CCC4CC(N)CCC43C)C1CCC2O (configuration not stated),/,2.1
COc1ccc(C(=O)OCc2c(C)noc2C)cc1S(=O)(=O)NCc1ccc(Cl)cc1,/,-0.85
Cc1ccc(-n2nc(C)c3onc(C)c3c2=O)cc1,-1.3,2.2
CC1CCCN(C(=O)COc2ccc(-c3ccccc3)cc2)C1 (configuration not stated),0.095,-0.35
CC1(C)CC(=O)c2ccc(OCC(=O)Nc3ccc(Br)cc3)cc2O1,0.4,0.1
O=C1CCCC2=C1C(c1ccccc1Cl)C1=C(CCCC1=O)O2,-0.005,0.3
CCOc1ccc(Cn2c(=O)[nH]c3c2c(=O)n(C)c(=O)n3C)cc1OCC,0.1,-0.1
O=C(O)c1ccc(NCc2ccco2)cc1,-0.73,-1.1
O=C(NCc1ccccc1Cl)C1CC1,-0.24,-0.25
Cc1ccc(CO/N=C/CC(=O)c2cnc(-c3ccccc3)s2)cc1,0.1,/
O=C(/C=C/c1ccco1)Nc1cccc2cccnc12,0.025,-0.45
N#CC(C#N)=CNNc1ncnc2sccc12,0.67,0.85
COc1ccccc1NC(=O)CC(C)(C)C,/,1.1
FC(F)(F)c1ccc(-c2nnc3cccc(Cl)n23)cc1,0.28,/
C=CCn1c(SCc2ccc(C(=O)OC)cc2)nc2sc(C)c(C)c2c1=O,0.46,/
Cn1c(N/C(=C/C(=O)c2cccs2)C(F)(F)F)nc2ccccc21,/,-1.1
Cc1ccc(CN(C)C(=S)Nc2cccc(C(F)(F)F)c2)o1,/,0.3
CCOC(=O)C(Cc1c(F)cccc1Cl)c1ccnn1-c1cccc(F)n1 (configuration not stated),-0.2,/
CCCC(=O)Nc1ccc(C(=O)NN)cc1,/,-0.15
CCOC(=O)c1c(NC(=O)CCCOc2ccc(Cl)cc2Cl)sc(C(=O)Nc2ccccc2C)c1C,-1,/
CCOc1cccc(=O)c2c(C)n(-c3ccc(OC)cc3)c(C)c12,-1.9,0.85
CCOC(=O)N1CCC(NC(=O)CCc2nc(-c3ccc(C)cc3)no2)CC1,0.04,2.1
CCC(c1ccccc1)c1nc(-c2ccccc2)no1 (configuration not stated),-0.075,-0.8
COc1ccc(-c2cc(C(F)(F)F)n3ncc(C(=O)Nc4cccc(CCC#N)c4)c3n2)cc1OC,2.6,/
O=S(=O)(c1ccc(-c2ccccn2)s1)N1CCOCC1,-0.13,1.8
O=c1cc(/C=C/c2ccccc2)oc2ccccc12,0.86,-0.4
CN(N)c1nc(N2CCCC2)nc(N2CCCC2)n1,0.4,-0.55
S=C(NC1CCCCC1)Sc1ccc(Cl)cc1,0.035,-0.9
Cc1cc(NC(=O)CC2ON(C)C(=O)N2c2ccc(Cl)cc2)no1 (configuration not stated),0.4,/

structure,Ba CapD inh,AID504770
NNc1ccc2nnnn2n1,-0.27,/
CC(C)OC(=O)CSc1nc2ccccc2[nH]1,-0.27,1.4
CC(C)CN(CC(C)C)c1nnc(N)s1,-0.39,-0.65
CC(=O)Nc1ncc2c(n1)CC(c1ccc(C)cc1)CC2=O (configuration not stated),-0.065,1.9
Cc1cc(C)c2c(c1)c1n[nH]c(=S)nc1n2C,/,0.25
COC(=O)Cc1ccc2sc(-c3ccccc3)nc2c1,0.75,0.1
Cc1ccc(N2C(=N)S/C(=C\c3ccccc3OCC(=O)O)C2=O)cc1Cl,-1.7,/
CCN=PN1CCN(P(=NCC)(N(CC)CC)N(CC)CC)CC1 (configuration not stated),/,1.2
COC(=O)c1cc2oc3ccccc3c2n1CC(=O)NCc1ccco1,1.7,1.5
CCc1ccc(NC(=O)CN2C(=O)c3ccccc3S2(=O)=O)cc1,0.35,0.5
Cc1ccc(N/C=C2\C(=O)N(c3ccc(F)cc3F)C(c3cccnc3)S2(=O)=O)cc1 (configuration not stated),0.42,0.55
COCCN(Cc1ccccc1)S(=O)(=O)c1ccccc1OC,/,-0.4
N#C/C(C(=O)Nc1ccccc1)=C(/Nc1ccccc1)SCc1ccccc1F,-0.14,/
Cc1onc(-c2ccccc2Cl)c1-c1nc2ccc(I)cc2c(=O)o1,0.64,0.1
CCOc1cc(C2C(C#N)=C(N)Oc3n[nH]c(C(C)C)c32)cc([N+](=O)[O-])c1OC(=O)c1cccs1 (configuration not stated),-0.88,/
CC1Cc2ccccc2N1S(=O)(=O)c1cccc(C(=O)C(C#N)c2ccccn2)c1 (configuration not stated),/,1.1
Cc1ccc(-n2c(N)cc(=O)[nH]c2=O)cc1,/,-0.95
O=C1[C@H]2[C@H](ON(Cc3ccccc3)[C@@H]2c2ccccc2)C(=O)N1Cc1ccccc1,0,/
Cc1ccc(OCc2nc(SCC(=O)NC(=O)NC3CCCC3)n[nH]2)cc1,/,1.8
O=C(CSc1nc2ccccc2o1)c1ccc2c(c1)OCCO2,/,0.95
CC(=O)N1CCN(CCN2C(C)=CC(=C(C#N)C#N)C=C2C)CC1,/,0.15
CCc1c(C)nn(-c2ccc(C(=O)N3CCN(C/C=C/c4ccccc4)CC3)cc2)c1C,-1.1,/
O=C(O)/C=C/c1ccc(-c2ccccc2)o1,/,-0.15
Cc1ccc(S(=O)(=O)c2cc(C)ccc2C)cc1,i,-0.1
Nc1nncn1C(=O)c1ccccc1F,-0.065,1.4
O=C(CSc1ccccc1)NCC1CCCO1 (configuration not stated),/,0.85
Cc1ccc(S(=O)(=O)CNC=O)cc1,/,-1.2
COC(=O)c1ccc(COC(=O)c2cccc(S(=O)(=O)N3CCc4ccccc43)c2)o1,/,1.5
CC(CNC1CCCCC1)OC(=O)c1ccccc1 (configuration not stated),-0.2,/
COc1cc(Br)c(/C=C2\C(=O)N(c3ccc(C(=O)OC(C)C)cc3)N=C2C)cc1OC,-0.065,/

# The line under a structure holds: Ba CapD inh, AID504770
C(=NCC1CCCO1)c1cccnc1 (configuration not stated)
    1.2, 0.8
N#CC(C#N)=C1C=C2C=C(N3CCc4ccccc4C3)CCC2CC1 (configuration not stated)
    /, 2.3
O=C(COc1cccc(F)c1)OCC(=O)c1cccc(Cl)c1
    -0.57, -0.25
O/N=C/C1=C(Cl)c2cc(Cl)ccc2SC1
    -0.39, 0.25
CCOC(=O)c1ccc(N=C2SC(C(=O)Nc3cccc(Cl)c3)CC(=O)N2C)cc1 (configuration not stated)
    0.055, /
O=C(COc1ncnc2ccccc12)Nc1cccc(C(F)(F)F)c1
    -0.41, -0.2
O=C1NNC(c2ccccc2)=N/C1=C\c1ccco1
    -2, 0.15
COC(=O)C1=NNC2C(=O)N(c3cccc(Br)c3)C(=O)C12 (configuration not stated)
    -0.65, /
Cc1cc(OC(C)C(=O)Nc2ncn[nH]2)ccc1Cl (configuration not stated)
    -0.39, -0.95
COCCCCOC(=O)N1CCN(Cc2cc(OC)c(OC)cc2Br)CC1
    -0.12, /
CC1(C)CC(Nc2ccc(Nc3ccccc3)cc2)CC(C)(C)N1
    0.47, 0.2
COc1ccccc1Oc1ccc(S(=O)(=O)Nc2cccnc2)cc1
    -0.02, -0.8
CCN(CC)CCOc1ccc(/C(=C(/Cl)c2ccccc2)c2ccccc2)cc1
    0.075, /
CS(=O)(=O)c1ccc2ccn(OC(=O)Nc3ccccc3)c2c1
    -0.14, /
CN1N=C(c2ccc3ccccc3c2)CC1c1ccc(F)cc1 (configuration not stated)
    85, -0.7
CCOC(=O)c1cc2ccccc2c(=O)s1
    -0.98, -0.4
COc1ccc(C=Nc2ccc(NC(=O)c3ccccc3O)cc2)cc1
    -1.5, 0.05
O=C1c2ccccc2C(=O)N1CC#CCN1CCN(CC#CCN2C(=O)c3ccccc3C2=O)CC1
    0.26, 0.1
N#CCCn1c(C2CCCCC2)nc2ccccc21
    0.18, -0.45
O=C1NN=CC(c2ccccc2)(c2c[nH]c3ccccc23)N1 (configuration not stated)
    -1.3, 0.95
Nc1nc(-c2nc3ccccc3[nH]2)cs1
    0.67, 1.6
Clc1ccc(C2N(Cc3ccccc3)CCC3CCCCN32)cc1 (configuration not stated)
    0.38, 0.05
O=C(c1ccc2c(=O)n(Cc3ccc4c(c3)OCO4)c(=S)[nH]c2c1)N1CCN(Cc2ccccc2)CC1
    0.19, /
C(=C\c1ccccc1)/CNCCN1CCOCC1
    /, -0.8
N#Cc1cc(C(=O)c2ccccc2O)cn2c(=O)c3ccccc3nc12
    /, -0.1
CCOC(=O)C[n+]1ccccc1C
    16, 0
COc1ccc(-c2cnn(-c3ccc(NC(=O)c4cc(Cl)nc(Cl)c4)cc3)c2)cc1
    -0.29, /
COc1ccccc1-n1cnnc1SC(C)C(=O)NCCC1=CCCCC1 (configuration not stated)
    /, 1.2
CC1(C)CC(=O)C2=C(C1)N=C1c3ccccc3C(=O)C1C2c1ccc(Cl)cc1Cl (configuration not stated)
    -0.65, /
Cn1c(C(=O)N2CCCCC2)cc2c(=O)[nH]c3ccccc3c21
    -0.33, -0.9

# The line under a structure holds: Ba CapD inh, AID504770
COc1cc(C)c(C(=O)CCC(=O)O)cc1C
    /, -0.6
CCN(CC)N=Nc1ccc(S(=O)(=O)N2CCSC2C(=O)O)cc1 (configuration not stated)
    /, -0.45
CCOCCOC(=O)C1=C(C)NC(=O)CC1c1ccc(Cl)cc1Cl (configuration not stated)
    2.4, /
CCCCc1nc2sc3c(=O)n(N)cnc3c2c2c1CCC2
    -0.33, 2.3
Cc1ccnn1CCC(=O)O
    -0.15, 1.1

# Molecules above that contain a COOH group:
# The line under a structure holds: Ba CapD inh, AID504770
O=C(O)CCC(=O)Nc1cc(C(F)(F)F)cc(C(F)(F)F)c1
    0.75, -0.65
O=C(O)c1ccc(NCc2ccco2)cc1
    -0.73, -1.1
Cc1ccc(N2C(=N)S/C(=C\c3ccccc3OCC(=O)O)C2=O)cc1Cl
    -1.7, /
O=C(O)/C=C/c1ccc(-c2ccccc2)o1
    /, -0.15
COc1cc(C)c(C(=O)CCC(=O)O)cc1C
    /, -0.6
CCN(CC)N=Nc1ccc(S(=O)(=O)N2CCSC2C(=O)O)cc1 (configuration not stated)
    /, -0.45
Cc1ccnn1CCC(=O)O
    -0.15, 1.1

# Not a hit list, and some 0.37% of all compounds hit somewhere here.
